H5N1 antiviral = antiviral screen in MDCK cells, H5N1 avian flu. cytopathic effect, luminescence, 72 h; hits give high values; no value below 0 was filed and about half of the inactive calls have no number; reference of the scale not given here. inhibition, % at 50 µM. 96,000 compounds, 0.07% hits. AID 740; in the data active means inhibition above about 25%
* marks the source's active call; other numbers are inactive results; i = inactive. An excerpt, so the mix of outcomes need not match the whole.

SMILES	H5N1 antiviral
CCCOC(=O)Nc1ccc(C(N)=O)cc1	i
CCOc1ccc(NC(=O)CN2CCN(CC(=O)Nc3ccc4c(c3)OCO4)CC2)cc1	i
CCc1nc2cc(Cl)c(Cl)cc2[nH]1	1.9
NC(Cc1ccc2nonc2c1)C(=O)O (stereo unspecified)	i
CCN(CCCNC(=O)c1[nH]c(C)c(C(C)=O)c1C)c1ccccc1	i
CCOC(=O)C1CCN(Cc2ccccc2C)CC1	1.1
Fc1ccc(Cn2ccc(-c3cnc(-c4ccccc4)s3)n2)cc1	i
Cc1nc2ccccn2c1C(=O)N/N=C/c1ccccc1[N+](=O)[O-]	i
CCOC(=O)CSc1nc(N)c2c3c(sc2n1)CCCC3	i
N#CC1=C(O)CCCn2c1nc1ccccc1c2=O	0.7

Grouped by structure, those above containing sulfur (two)
SMILES	H5N1 antiviral
Fc1ccc(Cn2ccc(-c3cnc(-c4ccccc4)s3)n2)cc1	i
CCOC(=O)CSc1nc(N)c2c3c(sc2n1)CCCC3	i

Remaining list, next part.
SMILES	H5N1 antiviral
Clc1ccccc1OCCCCN1CCCC1	0.1
COc1ccc(OCC(=O)NNc2c3ccccc3nc3ccccc23)cc1	4.3
CCOC(=O)Cn1nc(CC)c2ccccc2c1=O	0.3
CCOc1ccc(C2CC(c3cccc(OC)c3)n3nc(N)nc3N2)cc1 (stereo unspecified)	0.3
CC(C)NC(=O)CSCc1ccccc1Cl	1.7
CCCCn1c(N)c(Sc2ccc(C)cc2)c(=O)[nH]c1=O	0.2
O=C(Nc1ccc2oc(-c3cccnc3)nc2c1)c1ccc(Br)o1	i
CC(C)CNC(=O)c1ccccc1NC(=O)CSCc1ccccc1	i
CC(=O)C(C)Oc1ccc2c3c(c(=O)oc2c1C)CCCC3 (stereo unspecified)	3.1
CC1(C)OC(C(=O)NC2CCCCC2)C(C(=O)NC2CCCCC2)O1 (stereo unspecified)	i
CSc1nc2sc3c(c2c(=O)n1C)CCC(C)C3 (stereo unspecified)	i
C=CCn1c(C(C)NC(=O)c2ccccc2)n[nH]c1=S (stereo unspecified)	0.3
CNC(=S)NNC(=O)c1cccn(Cc2cccc(Cl)c2)c1=O	0.1
COc1ccc(C(=O)/C=C/Nc2ccc(NC(C)=O)cc2)cc1OC	1.1
CCOC(=O)C1CCN(C(=O)c2ccc(OC)cc2OC)CC1	0.1
COc1ccc(S(N)(=O)=O)cc1C(=O)NCCCN1CCN(c2cccc(Cl)c2)CC1	i
C=CCNC(=O)c1cc(=O)c2ccccc2o1	2.1
CC(C)c1nnc(NC(=O)c2sc3ccccc3c2Cl)s1	i
COc1cc(C)ccc1NC(=O)c1ccc(S(=O)(=O)N2CCOCC2)cc1	0.5
COc1ccc2[nH]c(=S)[nH]c2c1	0.9
O=C1CC(N2CCN(c3cccc(C(F)(F)F)c3)CC2)C(=O)N1c1ccccc1 (stereo unspecified)	i
O=C(C1CC1)N1CCc2cc(S(=O)(=O)NCC3COc4ccccc4O3)ccc21 (stereo unspecified)	1.0
Cc1nc2sc(C(c3cccc(F)c3)N3CC(C)OC(C)C3)c(O)n2n1 (stereo unspecified)	i
CCN1CCN(c2ccc([N+](=O)[O-])cc2C(=O)c2ccc(Cl)cc2)CC1	i
CCOC(=O)c1c(NC(=S)Nc2ccc(F)cc2)sc2c1CCC2	i
COc1ccccc1Oc1ccc2c(c1)C(=O)N(c1cccc(O)c1)C2=O	i
N#CCCSc1nc(N2CCOCC2)c2c(c1C#N)CCCC2	1.9
CN(Cc1nnc(SCC(=O)NCCc2ccccc2)n1C)S(=O)(=O)c1ccccc1	i
COc1ccccc1N(CC(=O)NCc1cccnc1)S(C)(=O)=O	0.2
Cc1cc(C(=O)OC(C)C(=O)Nc2nc(-c3ccccc3)cs2)c(C)o1 (stereo unspecified)	i
Cc1ccc(CN=C2Nc3ccccc3CS2)cc1	i
Cc1ccc2c(c1)c1c3n2CCN=C3CCC1	0.3
C#CCSC1=C(C#N)C(c2cccs2)C(C(=O)OCC)=C(C)N1 (stereo unspecified)	0.7
O=C(Nc1cnn(Cc2ccccc2)c1)c1nc2ncccn2n1	i
Cn1c(SCC(=O)NC(c2ccccc2)c2ccccc2)nnc1-c1cccs1	i
CCOC(=O)c1nnn(CC(=O)Nc2cccc(OC)c2)c1C(=O)OCC	0.1
Oc1ccccc1/C=N/n1c2ccccc2c2ccccc21	i
Cc1ccc(C(=O)C[n+]2cc(-c3ccccc3)n3c2CCCCC3)cc1	1.8
CS(=O)(=O)NCCSCc1ccccc1	0.8
CSC1=NCCN1C(=O)c1ccc(S(=O)(=O)N(C)C)cc1	2.7
CC(=O)Nc1ccc(N2C(=O)CC(c3ccccc3)CC2=O)cc1	0.4
CCCCCCc1nc2ccccc2c(=O)n1NC(=O)c1c(O)c2c(n(CC(C)C)c1=O)CCCC2	i
Cc1cccc(N(CC(=O)Nc2c(C)n(C)n(-c3ccccc3)c2=O)S(C)(=O)=O)c1	i
O=C(Nc1nnc(COc2ccccc2)s1)C1CCN(S(=O)(=O)c2ccc(Cl)cc2)CC1	0.3
S=C(Nc1ccc(Cl)c(Cl)c1)NC1CCCCC1	0.3
O=C(NCCO)C(c1ccccc1)c1ccccc1	i
CC(C)CN(C(=O)COC(=O)C12CC3CC(CC(O)(C3)C1)C2)C1CCS(=O)(=O)C1 (stereo unspecified)	1.0
COc1ccc(N(C)C2=NS(=O)(=O)c3ccccc32)cc1	i
Cc1cc(NC(=O)CCCC(=O)NCc2cccs2)no1	i
COc1ccc(CCNC(=O)c2cc3sccc3n2C)cc1OC	i

Next compounds
SMILES	H5N1 antiviral
COCC(C)Nc1ncnc2c1cnn2-c1ccc(Cl)cc1 (stereo unspecified)	i
CCCCCCn1c(O)c(C=NC2CCN(Cc3ccccc3)CC2)c(=O)[nH]c1=O	i
CCOC(=O)CSc1nc2c(sc(=S)n2Cc2ccco2)c(=O)n1-c1ccccc1	i
COC(=O)c1ccccc1NC(=O)C1COc2ccccc2O1 (stereo unspecified)	i
N#C/C(=C\c1ccccc1)c1n[nH]c(Cn2cncn2)n1	0.9
Cc1ccccc1CSc1nnc(Cn2c(=O)sc3ccccc32)n1C	3.3
CO/C=C/C#CC1(O)CCN(C)CC1	i
c1ccc(CNn2nnnc2-c2ccccc2)cc1	1.5
CNC(=O)NC(=O)CSc1nc2ccccc2n1CCOC	0.1
Cc1cc(NC(=O)CSc2nnc(C3CC3)n2Cc2ccccc2)no1	0.8
COc1ccc(NC(=O)CSc2ncn(-c3ccccc3)n2)cc1Cl	i
COC(=O)Nc1c(-c2ccccc2)nc2ccccn12	i
CCOC(=O)c1c(NC(=O)COC)sc2c1CCCC2	2.1
CC(C)COc1ccc(CNC(=S)N/N=C/c2ccc([N+](=O)[O-])cc2)cc1	1.3
CCOc1ccc(-c2nc(CSc3nnc(N)s3)cs2)cc1OC	2.2
O=C(CSCc1ccccc1)Nc1nccs1	i
O=C(OCCN1CCCCC1)c1ccc(Cl)cc1	1.7
COC(=O)c1ccccc1NC(=O)CSc1n[nH]c(CC(C)C)n1	i
O=C(NCCN1CCOCC1)c1cc2n(n1)C(C(F)(F)F)CC(c1ccc(F)cc1)N2 (stereo unspecified)	i
Clc1ccc(CN(CC2CCCO2)C(c2cccs2)c2nnnn2C2CCCC2)cc1 (stereo unspecified)	0.0
Cc1ccsc1C1CC(=O)NC2=C1C(=O)CC(C)(C)C2 (stereo unspecified)	i
CCOC(=O)C1=C(C)NC2=C(C(=O)C(C(=O)OCC)C(c3cccc(OC)c3)C2)C1c1ccccn1 (stereo unspecified)	i
CC1Cc2ccccc2N1C(=O)COC(=O)c1cccnc1Cl (stereo unspecified)	0.1
O=C(Cc1coc2ccc3ccccc3c12)Nc1nnc(C2CC2)s1	i
COCCn1c(N2CCN(c3ccc(OC)cc3)CC2)nc2c1c(=O)[nH]c(=O)n2C	i
COC(=O)c1ccc(C)c(NC(=O)Cc2coc3cc(OC)ccc23)c1	0.1
Cc1c(NC(=O)c2ccccc2N(C)S(=O)(=O)c2ccccc2)c(=O)n(-c2ccccc2)n1C	i
Cc1ccc(NC(=O)Cn2cnc3c(cnn3C(C)(C)C)c2=O)cc1	0.1
CCOC(=O)N1CCN(C(=O)Nc2ccc3nc(-c4ccccn4)c(-c4ccccn4)nc3c2)CC1	i
Cc1ccc(S(=O)(=O)Cc2ccc(C(=O)N3CCN(c4ccc(F)cc4)CC3)o2)cc1	i
O=C(O)CCc1ccc(-c2ccccc2)n1CC1CCCO1 (stereo unspecified)	i
COc1ccc(C2c3c(oc4ccccc4c3=O)C(=O)N2Cc2ccncc2)cc1 (stereo unspecified)	2.1
Cc1csc(SCc2nc3sc4c(c3c(=O)[nH]2)CCC4)n1	1.1
O=C(c1ccc(Cl)cc1)c1nnc(-c2ccncc2)o1	0.1
CC(C)n1c(O)c(/C=C2\C=Nc3ccccc32)sc1=Nc1ccccc1	i
CC1(C)Cc2c(C#N)c(N3CCCC3)nc(-c3ccco3)c2CO1	15
CCN(CC)S(=O)(=O)c1ccc(OC)nc1	0.8
Cc1cccc2nc(CSc3nnnn3-c3ccccc3)cn12	i
O=C(NCCN1CCOCC1)N1CCOCC1	i
CCc1ccc(C(=O)COC(=O)c2cccc(N3C(=O)c4c(C)nc5ccccc5c4C3=O)c2)cc1	i
O=C(Nc1c(F)c(F)c(F)c(F)c1F)NC1CCCCC1	i
COc1ccc(/C=N/n2c(=S)n(C)c3ccccc32)cc1OC	i
COc1ccc(C2NCc3ccc4c(c3-n3cccc32)OCO4)cc1O (stereo unspecified)	0.9
c1nc(N2CCCCC2)c2[nH]cnc2n1	i
CCNC(=O)CC1C(=O)N(c2ccccc2)C(=O)N1CCc1ccc(OC)c(OC)c1 (stereo unspecified)	0.3
O=C(c1ccc2ncsc2c1)N1CCN(c2ccc(O)cc2)CC1	i
COc1ccc(OC)c(C2NC(=O)NC(C)=C2C(=O)Nc2ccc(C)cc2C)c1 (stereo unspecified)	2.7
CNC(=O)C(=O)NCCc1ccc(Cl)cc1	0.2
Cc1c(Cl)ccc2c1NC(=O)C21NC(CCC(N)=O)[C@H]2C(=O)N(c3ccc(Cl)cc3)C(=O)[C@H]21 (stereo partly specified)	i
O=C(c1cn(-c2ccccc2)nc1-c1ccncc1)N1CCCCC1	i

Continuation:
SMILES	H5N1 antiviral
O=C(Nc1nccs1)c1ccc(S(=O)(=O)N2CCCCC2)cc1	1.9
COc1ccc(C(=O)Nc2nc(C)c(C(=O)N(C)C)s2)cc1OC	i
COc1ccc(OCCSc2nnc3sc4ccccc4n23)cc1	3.9
CCOC(=O)Cc1[nH]nc2c1C(C1C=CCCC1)C(C#N)=C(N)O2 (stereo unspecified)	2.3
O=C1CC(c2cccc(F)c2)C2=C(CCCC2=O)N1 (stereo unspecified)	i
COc1ccc(-c2nc(NC(=O)CSc3nnc(C)s3)ns2)cc1	1.4
CCCOc1ccc(C(=O)c2nc3c(n2O)CCCCC3)cc1	i
COc1ccc(N2CCN(CC(O)COc3ccc4c(c3)CCC4)CC2)cc1 (stereo unspecified)	0.1
CCOC(=O)Cn1c(=N)n(CCOc2cccc(C)c2)c2ccccc21	0.2
Cc1cccc(N2CCN(CC(=O)Nc3ccccc3[N+](=O)[O-])CC2)c1C	i
Cc1ccc(-c2cc(-c3ccccc3[N+](=O)[O-])[nH]n2)c(O)c1	i
Cc1cnc(C(=O)Nc2ccc(N3CCN(C(=O)OC(C)(C)C)CC3)cc2)cn1	i
O=C(C1CC1c1ccccc1)N1CCN(c2cccc(Cl)c2)CC1 (stereo unspecified)	i
O=C(c1coc(=O)c2ccccc12)N1CCN(Cc2ccccc2)CC1	0.6
CCN(CC)S(=O)(=O)c1ccc(-c2nnc(SCC(=O)Nc3ccc4c(c3)OCO4)o2)cc1	0.5
CSC1=NCCN1C(=O)c1c(F)cccc1Cl	1.1
CCN1CCN(CC(=O)Nc2cccc(C)c2C)C(=O)C1=O	0.2
COc1cccc(C2C(C#N)=C(N)Oc3cc(C)n(Cc4ccccn4)c(=O)c32)c1OC (stereo unspecified)	i
Cc1c(C)n(C)c2ccc(C(=O)Nc3cccc4ccccc34)cc12	i
O=C(CSc1nc2ccccc2[nH]1)NCCCn1ccnc1	i
COc1ccc(-c2nnn(CC(=O)OC3CCCCC3)n2)cc1OC	i
CN(C)c1cccc(C(=O)Nc2cccc(F)c2)c1	i
CC(C)n1c(N2CCN(C(=O)N3CCCCC3)CC2)nc2ccccc21	i
CC(C)c1[nH]nc2c1C(c1cccnc1)C(C#N)=C(N)O2 (stereo unspecified)	i
CCc1cc2c(=O)n(C(C)C(=O)OC3CCCCC3)cnc2s1 (stereo unspecified)	0.3
c1ccc(Cc2nnc3n2CCCCC3)cc1	0.2
CC12CCCCC1=[N+]([O-])CN2O (stereo unspecified)	i
Cc1ccccc1C(=O)N1CCN(c2ccc([N+](=O)[O-])c(NCc3ccco3)c2)CC1	i

Gathered by group, those above with an NH in an aromatic ring.
SMILES	H5N1 antiviral
CCc1nc2cc(Cl)c(Cl)cc2[nH]1	1.9
CCN(CCCNC(=O)c1[nH]c(C)c(C(C)=O)c1C)c1ccccc1	i
CCCCn1c(N)c(Sc2ccc(C)cc2)c(=O)[nH]c1=O	0.2
C=CCn1c(C(C)NC(=O)c2ccccc2)n[nH]c1=S (stereo unspecified)	0.3
COc1ccc2[nH]c(=S)[nH]c2c1	0.9
CCCCCCn1c(O)c(C=NC2CCN(Cc3ccccc3)CC2)c(=O)[nH]c1=O	i
N#C/C(=C\c1ccccc1)c1n[nH]c(Cn2cncn2)n1	0.9
COC(=O)c1ccccc1NC(=O)CSc1n[nH]c(CC(C)C)n1	i
COCCn1c(N2CCN(c3ccc(OC)cc3)CC2)nc2c1c(=O)[nH]c(=O)n2C	i
Cc1csc(SCc2nc3sc4c(c3c(=O)[nH]2)CCC4)n1	1.1
c1nc(N2CCCCC2)c2[nH]cnc2n1	i
CCOC(=O)Cc1[nH]nc2c1C(C1C=CCCC1)C(C#N)=C(N)O2 (stereo unspecified)	2.3
Cc1ccc(-c2cc(-c3ccccc3[N+](=O)[O-])[nH]n2)c(O)c1	i
O=C(CSc1nc2ccccc2[nH]1)NCCCn1ccnc1	i
CC(C)c1[nH]nc2c1C(c1cccnc1)C(C#N)=C(N)O2 (stereo unspecified)	i
